Rango release inh = inhibitors of RanGTP-induced Rango-importin beta complex dissociation. O95149+P62826. Biochemical FRET Rango-importin beta, RanGTP-induced dissociation. Potency, µM (series often up to 46.1 µM), for inactives: at the highest dose activity change, negative = inhibition. hit rate 0.071% among 340,000. AID 540253; active means falling FRET ratio curve, often poorly fitted, with flat reads before Ran was added; inconclusive means other falling curves, or compound fluorescence or quenching; inactive means flat or rising ratio curve;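 further: potency means the concentration at half of the fitted maximal effect; % of control where 0% means no effect; nearly all actives have a fitted effect of over 45% in size; -100% = wells without RanGTP and RCC1; the record marks most hits as doubtful in a second field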
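Quantitative HTS using a FRET biosensor: 0.1 uM Rango, 0.25 uM importin beta, 0.6 uM Ran, 2 mM GTP, 0.2 uM RCC1 final, PBS with DTT, Tween-20 and BSA. Post-read taken 45 min after Ran addition.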
Rango complex inh = Rango-importin beta binding inhibition; Q14974; Rango CFP/YFP FRET sensor + importin beta, 45 min; Potency, µM (top dose mostly 92.2 µM), for the others: at the highest dose inhibition of complex formation; hit rate 0.031% among 340,000; active = rising FRET ratio curve, often small or poorly fitted; inconclusive = mostly compound fluorescence or quenching in the first reads; inactive = flat curves in all reads;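 further: potency means the concentration at half of the fitted maximal effect; 0% = DMSO wells and 100% = buffer wells lacking importin beta; nearly all actives have a fitted effect of over 15% in size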
Target sequence (Q14974 whole entry, looked up): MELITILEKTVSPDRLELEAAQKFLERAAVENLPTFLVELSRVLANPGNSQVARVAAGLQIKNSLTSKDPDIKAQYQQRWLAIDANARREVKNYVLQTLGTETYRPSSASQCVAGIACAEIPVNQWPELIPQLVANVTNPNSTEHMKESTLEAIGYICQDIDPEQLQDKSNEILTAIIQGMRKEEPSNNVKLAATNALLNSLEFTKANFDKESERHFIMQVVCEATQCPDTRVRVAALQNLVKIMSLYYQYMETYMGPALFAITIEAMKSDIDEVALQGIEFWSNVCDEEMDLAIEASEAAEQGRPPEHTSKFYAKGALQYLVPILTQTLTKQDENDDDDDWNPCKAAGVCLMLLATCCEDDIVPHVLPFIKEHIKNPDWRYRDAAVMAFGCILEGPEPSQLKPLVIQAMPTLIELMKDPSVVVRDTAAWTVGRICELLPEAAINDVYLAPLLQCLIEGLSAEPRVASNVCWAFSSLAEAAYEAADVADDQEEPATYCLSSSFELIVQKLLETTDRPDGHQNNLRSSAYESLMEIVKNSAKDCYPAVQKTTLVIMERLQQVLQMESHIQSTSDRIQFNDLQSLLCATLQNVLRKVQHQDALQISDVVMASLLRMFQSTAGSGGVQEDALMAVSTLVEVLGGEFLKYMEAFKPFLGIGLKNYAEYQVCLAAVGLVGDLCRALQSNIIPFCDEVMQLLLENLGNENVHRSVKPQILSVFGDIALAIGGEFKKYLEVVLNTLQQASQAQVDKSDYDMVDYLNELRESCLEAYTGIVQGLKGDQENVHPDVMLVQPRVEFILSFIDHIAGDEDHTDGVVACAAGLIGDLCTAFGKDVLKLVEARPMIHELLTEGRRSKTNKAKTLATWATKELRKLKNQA
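FRET biosensor Rango (snurportin 1 IBB between N-terminal EYFP and C-terminal Cerulean), 50 nM in PBS/1 mM DTT/0.02% Tween-20/0.1% BSA, preincubated 5 min RT with compound; 0.125 microM importin beta added, 45 min RT, CFP/YFP FRET ratio read.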
miR-21 reporter = miR-21 reporter, rising signal | HeLa miR-21 FLuc reporter, luciferase, 48 h | Potency, µM (top dose mostly 38.3 µM), inactives show top-dose reporter change, positive = more light | 340,000 tested, under 10 active; active = well fitted rising curve with a large enough effect; inconclusive = small, poorly fitted or top-dose-only effect; inactive = no such curve, though single readings can be large or run the other way;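 further: % of control where 0% means no effect; miR-21 action dims this reporter so a rising signal means less miR-21 action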
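HeLa cells endogenously expressing miR-21, stably carrying CMV-driven firefly luciferase with a downstream miR-21 binding site, 2000 cells/well. Titrations up to approximately 40 uM, 48 hours; luciferase luminescence read.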
GLA inh pH 4.5 = alpha-galactosidase A (human) inhibition, pH 4.5 | activity change, negative = inhibition, % at 105 µM | P06280 | purified enzyme, 4-MU-alpha-Gal fluorescence, pH 4.5 | 230,000 tested, under 10 active; inconclusive = small, poorly fitted or top-dose-only inhibition, or a rising curve; inactive = flat fitted curve, though single readings scatter; no compound was filed as active;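 further: 0% = full activity with enzyme and -100% = basal without enzyme; dose as in the result columns while the protocol names 77 µM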
* marks the source's active call; other numbers are inactive results; u = inconclusive; x = not tested or not shown; & = joins results of further samples. The list is partial. The share of hits here may be higher or lower than overall.

canonical_smiles	Rango release inh	Rango complex inh	miR-21 reporter	GLA inh pH 4.5
O=C(COc1ccc(S(=O)(=O)N2CCCCC2)cc1)NCc1ccncc1	-5.1%	-2.7%	-1.8%	-8.1
C#CCOCCOCCOCCNc1nc(N2CCN(C(=O)Cn3cc(CC(C)O)nn3)CC2)nc(N2CCN(C(=O)Cn3cc(CC(C)O)nn3)CC2)n1 (stereo not given)	6.0%	3.0%	-3.3%	7.8
O=C(CSc1nc2c(cnn2-c2cccc(Cl)c2)c(=O)[nH]1)NCCC1=CCCCC1	41.6%	-0.1%	x	x
COC(=O)c1oc2ccccc2c1NC(=O)/C=C/C(=O)O	-11.5%	2.6%	-10.3%	11.3
Cc1ccc(-c2nc3cc(C)ccc3o2)cc1	22.2%	-0.1%	-54.4%	-3.1
O=C(NCc1ccccc1F)c1ccc2c(c1)OCCO2	9.9%	6.6%	-36.3%	x
CCCc1nc2cc(CC(=O)OC)ccc2o1	3.0%	-1.4%	-10.1%	-15.0
CC1CCC/C(=N/Nc2ccc([N+](=O)[O-])cc2[N+](=O)[O-])C1 (stereo not given)	-1.7%	-0.3%	-0.7%	-17.5
CC(NC(=O)C1CCN(S(=O)(=O)c2ccc3nc4c(c(C(=O)O)c3c2)CCCC4)CC1)c1ccccc1 (stereo not given)	-15.5%	-5.1%	0.2%&-0.4%	x
O=C1OCCC1S(=O)(=O)c1ccc2ccccc2c1 (stereo not given)	-2.7%	u	-2.2%	-3.4
Cc1ccccc1C(=O)Nc1c(-c2cccs2)c(=O)c2ccccc2n1C	2.1%	-3.1%	0.7%	-5.2
O=C(O)c1ccc(N/N=C/c2cc3c(cc2[N+](=O)[O-])OCO3)cc1	1.6%	2.4%	-29.3%	-4.8
Cc1nn(Cc2ccc(Cl)cc2)c(C)c1NC(=O)CSc1n[nH]c(C)c1[N+](=O)[O-]	10.0%	5.4%	7.2%	-10.2
O=C(CN1C(=O)C2(OCCO2)c2ccccc21)c1ccc(Cl)cc1	4.8%	-2.8%	-17.4%	12.1
CCCCn1c(N)c(N(CCOC)C(=O)c2cc(Cl)nc3ccccc23)c(=O)[nH]c1=O	-7.5%	u	x	x
Cc1ccc(CNC(=O)CCn2cc(-c3ccc(C)cc3)nc2-c2ccncc2)cc1	14.0%	-3.1%	0.4%	x
COc1cccc(NC(=S)Nc2ccc(F)cc2)c1	-7.8%	-2.9%	-22.7%	x
CN(CCOc1ccccc1)C(=O)CCc1nc2sc3c(c2c(=O)[nH]1)CCCC3	-19.5%	u	-0.7%	x
CCn1c(SCC(N)=O)nc2cc(S(=O)(=O)N3CCOCC3)ccc21	-7.7%	-0.2%	-0.4%	3.0
Cc1ccc(-n2nnnc2-c2cnn(-c3cccc(F)c3)c2C(F)(F)F)cc1	-14.5%	1.2%	-2.7%	-3.9
N#C/C(=C/c1ccc(O)c(O)c1)c1nc2ccccc2[nH]1	u	u	-65.8%	x
CC(C)CSc1ncnc2c1oc1nc3c(cc12)COC(C)(C)C3	2.6%	-4.1%	-8.9%	-0.1
COCCN1CN(S(=O)(=O)c2ccccc2)c2nc3ccccc3nc21	-8.3%	0.5%	-8.6%	2.6
Cc1nn(CCc2n[nH]c(=S)n2-c2cccc(Cl)c2)c(C)c1[N+](=O)[O-]	1.2%	-1.5%	-3.3%	1.7
COC(=O)c1cc(S(=O)(=O)NCC2CCN(CCc3cccs3)CC2)cn1C	4.9%	1.2%	1.1%	x

Shown with values under each structure: entries from further up
Sequence of screens – Rango release inh	Rango complex inh	miR-21 reporter	GLA inh pH 4.5
- Cc1nn(CCc2n[nH]c(=S)n2-c2cccc(Cl)c2)c(C)c1[N+](=O)[O-]
→ 1.2%	-1.5%	-3.3%	1.7
- COC(=O)c1cc(S(=O)(=O)NCC2CCN(CCc3cccs3)CC2)cn1C
→ 4.9%	1.2%	1.1%	x

Continued.
canonical_smiles	Rango release inh	Rango complex inh	miR-21 reporter	GLA inh pH 4.5
Cc1ccc2c(c1)C1CN(C)CCC1N2C(=O)c1ccc(Cl)c(S(=O)(=O)N2CCOCC2)c1 (stereo not given)	3.8%	1.3%	-0.1%	3.4
CN(Cc1ccccc1)C(=O)COC(=O)COc1ccc(C#N)cc1	23.7%	0.2%	-1.0%	x
Cc1cc(C)n(-c2ccc(F)cc2CN2CCN(Cc3ccccc3)C(CCO)C2)n1 (stereo not given)	-0.2%	-1.1%	-1.2%	3.2
CCCCCN(C(=O)NC(=O)NC(C)CC)S(C)(=O)=O (stereo not given)	3.3%	-3.9%	-2.1%	-3.2
COCCn1c(C)cc(C(=O)COC(=O)CCS(=O)(=O)c2ccc(C)cc2)c1C	0.0%	-3.9%	x	x
Cc1cc2c(c(=O)n1CCCn1ccnc1)C(c1ccco1)C(C#N)=C(N)O2 (stereo not given)	u	u	-2.9%	8.1
CC(=O)N1c2ccc(S(=O)(=O)NCC3CCC(C(=O)Nc4ncccc4C)CC3)cc2CC1C (stereo not given)	6.5%	-1.3%	7.4%	x
CC(=O)c1c(C)[nH]c(C(=O)OCc2ccc(Br)cc2)c1C	-1.2%	2.1%	-10.3%	9.7
CCCc1cc(=O)oc2cc(OCC(=O)NCCCN3CCOCC3)c(Cl)cc12	3.0%	5.3%	1.0%	x
Cc1cccc(N(C)S(=O)(=O)c2cccc3nsnc23)c1	8.4%	4.3%	-2.1%	-3.2
Cc1ccc(-c2nc3ccccc3o2)cc1NC(=O)Cc1cccs1	25.4%	-3.7%	-7.0%	-2.4
CCC(=O)Nc1ccc2c(c1)nc(CCNC(=O)c1ccco1)n2C	1.1%	2.5%	-4.0%	x
CS(=O)(=O)N1CCN(c2ccccc2NC(=O)c2cc3ccccc3o2)CC1	4.1%	2.1%	12.6%	x
O=C1Nc2ccccc2C(O)(C(=O)NCc2ccco2)N1c1ccccc1 (stereo not given)	2.6%	2.2%	-0.1%	-18.7
CC(N=C1NS(=O)(=O)c2ccccc21)C(=O)NCc1ccncc1 (stereo not given)	21.4%	-0.5%	x	x
CC(NC(=O)COC(=O)/C=C/c1cccc(F)c1)c1ccccc1 (stereo not given)	3.3%	-2.4%	x	x
CCCSc1nc(N2CCOCC2)c2c(c1C#N)CCCC2	-10.5%	2.5%	-14.3%	-9.8
Cc1cccnc1NC(=O)CCc1nnc2ccc(N3CCC4(CC3)OCCO4)nn12	-1.9%	-0.2%	-2.9%	x
CCC(=O)c1ccc(N2CCN(C(=O)COc3ccccc3F)CC2)c(F)c1	0.9%	3.4%	1.2%	-0.7
CC(=O)C1C(c2cccc([N+](=O)[O-])c2)C2C(C)=NN=C2CC1(C)O (stereo not given)	4.4%	-0.3%	-1.0%	0.8
Cc1ccc(NC(=O)C(C)N2C(=O)C3C4CC(C(Br)C4Br)C3C2=O)cc1 (stereo not given)	2.9%	-0.8%	-8.2%	-9.3
CCOc1cc(/C=C2\SC(=S)N(NC(=O)c3cccnc3)C2=O)ccc1O	-15.3%	u	5.6%	-0.1
Cc1ccc(SCC(=O)Nc2ccc(N3CCOCC3)cc2)cc1	30.1%	0.1%	-1.5%	-0.2
COc1ccc(NC(=O)CN(C)C(=O)c2ccc(NS(=O)(=O)c3ccc(F)cc3)cc2)cc1	18.5%	u	x	x
Cc1ccc(C(=O)NC2CCCc3ccccc32)cc1[N+](=O)[O-] (stereo not given)	-3.2%	-0.1%	17.6%	x
NC(=O)Cn1c(=O)n(CC(=O)N2CCCCC2)c(=O)c2sccc21	12.7%	0.5%	-0.6%	x
Cc1ccccc1C(=O)OCCN(C)Cc1ccccc1	-14.7%	-2.7%	-5.0%	-27.4
COc1cccc(C2SCC(=O)N2c2ccc(Br)cc2)c1OC (stereo not given)	-14.8%	4.4%	-6.8%	1.1
O=C(Cc1coc(-c2ccc(F)cc2)n1)N1CCOCC1	-1.5%	-0.3%	-9.6%	4.9
Cc1csc(NC(=O)CSc2nc(C)cs2)n1	0.3%	-0.7%	-11.6%	-6.0
Cc1ccc(C(=O)NCC(=O)OCc2nnc(-c3ccc([N+](=O)[O-])cc3)o2)s1	-14.0%	-1.7%	x	x
COCC1CCN(C(=O)CC2C(=O)NCCN2Cc2cccc(Oc3ccccc3)c2)CC1 (stereo not given)	16.5%	-2.1%	-0.5%	x
COc1ccc(C2=NOC(Cn3nc(-c4ccccc4)cc3C(=O)NCc3ccco3)C2)cc1 (stereo not given)	-1.3%	-3.8%	x	x
O=C(NNC(=O)c1ccccc1Br)c1ccc(Cl)c(Cl)c1	1.3%	3.3%	-5.9%	-6.7
Cc1cccc(NC(=S)NCC(c2ccccc2)N(C)C)c1 (stereo not given)	7.4%	-0.6%	-7.0%	2.9
CCOC(=O)C1CCN(Cc2ccc3ccccc3c2)CC1	-14.2%	-3.0%	-2.3%	x
CC(C)[C@H](NC(=O)C1CCN(S(=O)(=O)c2ccc(F)cc2)CC1)C(=O)NCc1ccco1	9.2%	4.2%	-1.9%	x
CC(C)(C)c1csc(NC(=O)C2=COCCO2)n1	-7.1%	3.8%	x	x
COC(=O)c1cc(-c2ccc(Cl)cc2)n[nH]1	3.3%	4.2%	-26.4%	-2.1
C=CCN(Cc1cccc(OC)c1OC)C(=O)Oc1ccccc1	14.4%	0.6%	x	x
Cc1cccc(CSCCNC(=O)CSCc2ccc([N+](=O)[O-])cc2)c1	-4.7%	3.1%	-2.4%	2.5
COc1ccc(C(O)C(CN2CCOCC2)c2ccccc2)cc1 (stereo not given)	-17.4%	6.3%	-1.5%	6.1
COc1ccc(C(=O)NC(C)CCc2ccccc2)c(OC)c1 (stereo not given)	18.9%	-0.6%	-14.4%	x
CCN1CCCC1CNC(=O)c1ccc2c(c1)N(Cc1ccccc1F)C(=O)c1ccccc1S2(=O)=O (stereo not given)	5.3%	3.8%	1.9%	x
CCc1ccccc1NC(=O)c1ccc2c(c1)CCN2S(C)(=O)=O	-3.3%	-3.7%	-11.2%&5.3%	x
NS(=O)(=O)c1cccc(NC(=O)CSc2nc3ccccc3c(=O)n2Cc2ccco2)c1	1.1%	u	x	x
CCCCn1c(NS(=O)(=O)c2ccc(C)cc2)c(S(=O)(=O)c2ccccc2)c2nc3ccccc3nc21	u	u	18.4%	17.7
COc1ccc(CCNC(=O)Nc2ccc3c(c2)OCO3)cc1OC	-4.4%	-1.8%	0.9%	7.9
Cc1cccc(-c2c(NC(=O)c3ccco3)oc3c(C)cccc3c2=O)c1	-9.1%	0.7%	-2.7%	x
COc1cccc(N=Nc2c(N)[nH][nH]c2=O)c1	14.2%	0.5%	-92.8%	7.0

Remaining list, next part.
canonical_smiles	Rango release inh	Rango complex inh	miR-21 reporter	GLA inh pH 4.5
c1ccc(COc2ncnc3c2ncn3CCCNCc2ccc3c(c2)OCO3)cc1	12.5%	0.5%	x	x
CCc1ccccc1NC(=O)CSc1nnc([C@@H](N)Cc2ccccc2)o1	9.2%	0.3%	2.9%	x
CCOc1cc(NC(=O)C2CC2)c(OCC)cc1NC(=O)c1cccc(F)c1	14.3%	-1.9%	-1.5%	x
OC(COc1ccc(Cl)cc1)CN1C2=NCCCN2c2ccccc21 (stereo not given)	-14.4%	u	9.8%	1.6
Cn1ccsc1=NC(=O)c1ccc(Cl)c([N+](=O)[O-])c1	0.7%	-2.6%	-9.9%	x
CNc1ccc(/C=C(\CCC(=O)O)c2nc3ccccc3s2)cc1[N+](=O)[O-]	23.1%	-6.7%	-34.5%	-6.1
COc1ccc(-n2c(-c3ccccc3)c[n+]3c2CCC3)cc1	-2.6%	-1.1%	u	-1.8
O=C(NC1CCCC1)C1CC1c1ccccc1 (stereo not given)	-4.4%	-0.4%	-6.8%	0.0
O=C1CCC(=O)N1c1cccc(OS(=O)(=O)c2ccccc2)c1	6.1%	-2.6%	-1.6%	1.9
